# Compound activity as filed in PubChem.
# DUX4 inh = DUX4-mediated transcription inhibition; activity change, negative = inhibition, % (test concentration not listed); 37,000 compounds, 0.8% hits; AID 1224904; 293T-iDUX4 ZSCAN4-Gaussia luciferase reporter, 24 h; stronger effect = lower value;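 active = -10% or lower and over 25 points stronger than a control reporter; inconclusive = -10% or lower with a smaller gap; inactive = above -10%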;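 note: 0% = median of neutral control wells and -100% = median of positive control wells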
# DUX4 inh difference = further read-out of DUX4 inh, marked with its call; Gaussia minus Italica difference, %; measured here: selective DUX4 reporter inhibition;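 worked out from the two reporters; negative = selective loss of the DUX4 reporter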
# DUX4 inh control = recorded beside DUX4 inh, whose call it bears; activity change, negative = inhibition, %; measured here: Italica tet-on control reporter;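 0 = neutral control and -100 = positive control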
# Active calls of the source: *; ? = inconclusive; · = no result given; & = joins results of further samples. This is a subset (hit frequency here may not be typical).
# Start of the data: the first 11 entries as a preview:
DUX4 inh control	DUX4 inh difference	DUX4 inh	SMILES
-0.8	8	7	N#Cc1ccc(-c2ccc([C@H]3[C@@H](CO)N4C(=O)CNC[C@@H]34)cc2)cc1
·	·	?	C[C@@H](C(=O)N(C)C[C@H]1OCc2ccccc2-c2c(n(C)c3ccccc23)C(=O)N([C@@H](C)CO)C[C@@H]1C)c1ccccc1
3.1	0	3	O=C(NCC[C@H]1CC[C@H](NS(=O)(=O)c2ccc(Cl)cc2)[C@H](CO)O1)Nc1ccc(F)cc1
9.0&9.6	4&9	13&18	C/C=C/c1ccc(C2[C@H]3CNC[C@@H]2N3C(=O)NCCC)cc1 (stereo partly drawn)
-9.5	2	-8	O=C(c1ccccc1)N1[C@@H](CO)[C@@H](c2ccccc2)C12CN(Cc1nccs1)C2
-0.3	-3	-4	CCC(=O)N1C[C@@H]2[C@H](c3ccccc31)[C@H](CO)N2C(=O)CC
0.5	-2	-2	Cc1noc(C)c1NC(=O)Nc1ccc2c(c1)CC(=O)N([C@H](C)CO)C[C@@H](C)[C@@H](CN(C)S(=O)(=O)c1cccs1)O2
·	·	?	CCCNC(=O)N1CC2(CN(CC3CCCCC3)C2)c2c(n(C)c3cc(OC)ccc23)[C@H]1CO
0.2	-4	-4	N#C[C@H]1N[C@H](CO)[C@@H]1c1ccc(C#Cc2ccccc2F)cc1
10	17	27	COCC(=O)N1CCCCN2[C@@H](CO)[C@@H](c3ccc(C#Cc4cccnc4)cc3)[C@@H]2C1
-1.2	0	-1	CCCNC(=O)N(C)C[C@H]1Oc2ncc(-c3ccc(C(=O)N(C)C)cc3)cc2C(=O)N([C@@H](C)CO)C[C@H]1C

# Main list, repeating the preview:
DUX4 inh control	DUX4 inh difference	DUX4 inh	SMILES
-0.8	8	7	N#Cc1ccc(-c2ccc([C@H]3[C@@H](CO)N4C(=O)CNC[C@@H]34)cc2)cc1
·	·	?	C[C@@H](C(=O)N(C)C[C@H]1OCc2ccccc2-c2c(n(C)c3ccccc23)C(=O)N([C@@H](C)CO)C[C@@H]1C)c1ccccc1
3.1	0	3	O=C(NCC[C@H]1CC[C@H](NS(=O)(=O)c2ccc(Cl)cc2)[C@H](CO)O1)Nc1ccc(F)cc1
9.0&9.6	4&9	13&18	C/C=C/c1ccc(C2[C@H]3CNC[C@@H]2N3C(=O)NCCC)cc1 (stereo partly drawn)
-9.5	2	-8	O=C(c1ccccc1)N1[C@@H](CO)[C@@H](c2ccccc2)C12CN(Cc1nccs1)C2
-0.3	-3	-4	CCC(=O)N1C[C@@H]2[C@H](c3ccccc31)[C@H](CO)N2C(=O)CC
0.5	-2	-2	Cc1noc(C)c1NC(=O)Nc1ccc2c(c1)CC(=O)N([C@H](C)CO)C[C@@H](C)[C@@H](CN(C)S(=O)(=O)c1cccs1)O2
·	·	?	CCCNC(=O)N1CC2(CN(CC3CCCCC3)C2)c2c(n(C)c3cc(OC)ccc23)[C@H]1CO
0.2	-4	-4	N#C[C@H]1N[C@H](CO)[C@@H]1c1ccc(C#Cc2ccccc2F)cc1
10	17	27	COCC(=O)N1CCCCN2[C@@H](CO)[C@@H](c3ccc(C#Cc4cccnc4)cc3)[C@@H]2C1
-1.2	0	-1	CCCNC(=O)N(C)C[C@H]1Oc2ncc(-c3ccc(C(=O)N(C)C)cc3)cc2C(=O)N([C@@H](C)CO)C[C@H]1C
-2.7	1	-2	Cc1cc(C(=O)Nc2ccc3c(c2)C(=O)N(C)[C@H]2CC[C@@H](CC(=O)O)O[C@H]2CO3)no1
2.4	0	2	COC(=O)C[C@H]1C[C@H]2c3cc(NC(=O)Nc4ccccc4)ccc3O[C@H]2[C@H](CO)O1
4.8	-4	1	C[C@@H]1CN([C@H](C)CO)S(=O)(=O)c2ccc(C#Cc3ccccc3F)cc2O[C@H]1CN(C)CC1CCOCC1
4.1	-4	0	CO[C@@H]1CN(C)C(=O)c2ccc(NS(=O)(=O)CC(F)(F)F)cc2OC[C@H](C)N(C(=O)NC(C)C)C[C@H]1C
-2.2	6	4	O=C(C[C@@H]1CC[C@H]2[C@@H](COC[C@@H](O)CN2C(=O)c2ccccc2)O1)N1CCc2ccccc2C1
-1.3	3	2	CCC(=O)Nc1ccc2c(c1)C(=O)N(C)C[C@H](OC)[C@@H](C)CN(C(=O)c1ccc(F)cc1)[C@@H](C)CO2
-2.7	12	9	C[C@H](CO)N1C[C@H](C)[C@H](CN(C)C(=O)Nc2ccccc2)Oc2ncc(C#CC(C)(C)O)cc2C1=O
1.6	-1	1	CN1C(=O)c2cc(NC(=O)Cc3cccs3)ccc2OC[C@H]2O[C@@H](CC(=O)N[C@@H]3CCN(Cc4ccccc4)C3)CC[C@H]21
4.0	-2	2	CN1C(=O)c2cc(NS(=O)(=O)c3ccc(Cl)cc3)ccc2OC[C@H]2O[C@H](CC(=O)N3CCc4ccccc4C3)CC[C@H]21
5.0	1	6	C[C@@H]1CN([C@H](C)CO)C(=O)c2cc(C3=CCCCC3)cnc2O[C@H]1CN(C)S(=O)(=O)c1cn(C)cn1
2.9	2	4	O=C(C[C@@H]1CC[C@@H]2[C@H](COC[C@@H](O)CN2C(=O)c2ccccc2F)O1)N1CCN(c2ccccc2)CC1
-0.4	-5	-5	O=C(NC[C@@H]1[C@H](c2ccccc2)[C@H](CO)N1CC1CCCC1)c1cccnc1
-5.6	2	-4	C[C@@H]1CCCCO[C@@H](CN(C)Cc2ccc3c(c2)OCO3)[C@H](C)CN([C@H](C)CO)C(=O)c2cc(NS(=O)(=O)c3cn(C)cn3)ccc2O1
1.9	-2	0	CCC(=O)NC[C@@H]1[C@@H](c2ccccc2)[C@H](CO)N1C(=O)C1CC1
-2.4	3	1	O=C(C[C@H]1CC[C@@H](NC(=O)c2ccccn2)[C@@H](CO)O1)NCc1cc(F)cc(F)c1
8.7	-7	1	O=C(C[C@@H]1CC[C@@H]2[C@H](COC[C@@H](O)CN2S(=O)(=O)c2ccc(F)cc2)O1)NCc1ccc(Cl)c(Cl)c1
-2.0	20	18	O=C(c1ccccn1)N1CC[C@@H]2[C@H]1c1cc(-c3ccccc3F)ccc1N[C@@H]2CO
-4.5	-3	-8	COc1ccccc1NC(=O)N1CC(=O)N2[C@H](CO)[C@H](c3ccc(C#CC(C)C)cc3)[C@H]2C1
2.5	4	7	CO[C@H](CN(C)S(=O)(=O)c1cccc(Cl)c1)[C@@H](C)CN([C@@H](C)CO)S(=O)(=O)c1cccc(Cl)c1
·	·	?	COc1ccccc1C#Cc1ccc([C@@H]2[C@@H](CO)N3CCCCN(C(=O)C4CCC4)C[C@@H]23)cc1
3.9*	-43*	-39*	N#Cc1ccc(-c2ccc([C@H]3[C@@H](CO)N4CCCCN(C(=O)Nc5ccc(F)cc5)C[C@H]34)cc2)cc1
-9.1	16	7	CN1CCCCN2[C@H](C1)[C@@H](c1ccc(Br)cc1)[C@@H]2CO
0.3	6	6	CCCNC(=O)C[C@H]1CC[C@@H]2[C@H](COC[C@H](O)CN2C(=O)Nc2c(C)noc2C)O1
1.4	-5	-4	CN1C[C@@H]2[C@H](c3ccccc31)[C@H](CO)N2C(=O)C1CCCCC1
1.8	-3	-2	COCC(=O)N(C)C[C@@H]1Oc2cc(-c3ccc(OC)cc3)ccc2S(=O)(=O)N([C@H](C)CO)C[C@@H]1C
3.6	-7	-3	C[C@@H]1CCc2cnnn2COC[C@H](Cc2ccccc2)NC1=O
2.1	3	5	C[C@H](CO)N1C[C@H](C)[C@@H](CN(C)C(=O)Nc2ccccc2C(F)(F)F)OCc2cnnn2CCCC1=O
2.9	0	2	Cc1noc(C)c1NC(=O)N(C)C[C@H]1Oc2c(NC(=O)C3CCOCC3)cccc2C(=O)N([C@H](C)CO)C[C@H]1C
1.1	-1	0	CCCC(=O)Nc1ccc2c(c1)C(=O)N(C)[C@@H]1CC[C@@H](CC(=O)NCc3cccc(F)c3)O[C@H]1CO2

# Limited to DUX4 inh control, for 2 of the compounds above:
molecule | DUX4 inh control
CN1C[C@@H]2[C@H](c3ccccc31)[C@H](CO)N2C(=O)C1CCCCC1 | 1.4
COCC(=O)N(C)C[C@@H]1Oc2cc(-c3ccc(OC)cc3)ccc2S(=O)(=O)N([C@H](C)CO)C[C@@H]1C | 1.8

# Following part.
DUX4 inh control	DUX4 inh difference	DUX4 inh	SMILES
18	-15	3	CC(=O)N1CC(=O)N2[C@H](C1)[C@@H](c1ccc(C#Cc3cccnc3)cc1)[C@@H]2CO
17	-9	8	Cc1noc(C)c1C(=O)N(C)C[C@@H]1OCc2ccccc2-c2ccccc2C(=O)N([C@H](C)CO)C[C@@H]1C
-4.1	1	-3	O=C(c1ccc(F)cc1)N1C[C@H]2[C@@H](c3ccccc31)[C@H](CO)N2Cc1ccc2c(c1)OCO2
0.9	3	4	COc1cccc(NC(=O)N(C)C[C@H]2OCc3ccccc3-c3c(n(C)c4ccccc34)C(=O)N([C@H](C)CO)C[C@@H]2C)c1
4.7	-8	-4	COCCNC(=O)[C@@H]1[C@@H](CO)[C@@H]2Cn3c(ccc(-c4ccccc4OC)c3=O)[C@@H]2N1C(=O)C1CCC1
-3.8	-1	-5	N#C[C@H]1[C@H](c2ccc(C#Cc3ccc(F)cc3)cc2)[C@H](CO)N1C(=O)Cc1ccncc1
4.4	-5	-1	COc1ccc(C[C@@H]2CCn3cc(nn3)COC[C@@H](CC(C)C)NC2=O)cc1
-3.2	5	2	CCN1[C@H](C(=O)OC)[C@@H](CO)[C@@H]2Cn3c(ccc(-c4cccc(F)c4)c3=O)[C@@H]21
-0.4	9	8	COc1ccc2c3c([nH]c2c1)[C@@H](CO)N(Cc1nccs1)CC31CN(Cc2ccncc2)C1
0.5	-1	0	O=C(C[C@H]1C[C@H]2c3cc(NC(=O)Nc4ccc(C(F)(F)F)cc4)ccc3O[C@H]2[C@H](CO)O1)NC1CCCCC1
·	·	?	O=C(C[C@@H]1C[C@H]2c3cc(NC(=O)Nc4ccc(C(F)(F)F)cc4)ccc3O[C@H]2[C@H](CO)O1)NCc1cc(F)ccc1F
-1.2	12	11	O=C(N[C@H]1CC[C@@H](CCn2cc(-c3ccccc3)nn2)O[C@H]1CO)c1ccccc1F
11	7	18	COCC#Cc1ccc([C@@H]2[C@H](CO)N3C(=O)CN(C(=O)CN4CCOCC4)C[C@@H]23)cc1
-7.0	4	-3	CC(C)NC[C@H]1[C@@H](c2ccc(-c3cccc(F)c3)cc2)[C@@H](CO)N1CC1CC1
-0.4	2	2	C[C@@H]1CN([C@H](C)CO)C(=O)CCCn2nncc2CO[C@H]1CN(C)S(=O)(=O)c1ccccc1C#N
2.3	-1	2	O=C(C[C@H]1CC[C@H]2[C@@H](COC[C@H](O)CN2Cc2nccs2)O1)NCc1ccccc1Cl
0.0	-1	-1	CCNC(=O)[C@H]1[C@H](CO)[C@H]2Cn3c(ccc(/C=C/c4ccccc4)c3=O)[C@@H]1N2C(=O)C1CCC1
4.5	2	7	CCCC(=O)Nc1ccc2c(c1)C(=O)N(C)[C@H]1CC[C@H](CC(=O)NC3CCCC3)O[C@@H]1CO2
-1.3	8	7	CO[C@@H]1CN(C)C(=O)c2ccc(NC(C)=O)cc2OC[C@@H](C)N(C(=O)Cc2cccnc2)C[C@@H]1C
0.9	1	2	CO[C@H]1CN(C)C(=O)c2ccc(NC(=O)C3CC3)cc2OC[C@H](C)N(C(C)=O)C[C@@H]1C
2.0	-4	-2	CC=Cc1ccc2n(c1=O)C[C@@H]1[C@@H](CO)[C@H](C(=O)NC3CCCCC3)N(C(=O)C3CC3)[C@H]21 (mixture of isomers)
-4.6	-2	-7	Cc1ccc(-c2ccc([C@H]3[C@@H](CO)N4C(=O)CN(C(=O)Nc5cccc(F)c5)C[C@@H]34)cc2)cc1
13	-8	5	O=C(NC1CCCC1)N1CCCCN2[C@@H](CO)[C@@H](c3ccc(-c4ccccc4)cc3)[C@@H]2C1
0.2	-1	-1	CCCN1[C@@H]2c3ccc(-c4cccc(F)c4)c(=O)n3C[C@H]1[C@H](CO)[C@H]2C(=O)NCC
0.7	0	1	O=C(Nc1ccc2c(c1)[C@H]1C[C@@H](CC(=O)N3CCc4ccccc4C3)O[C@H](CO)[C@H]1O2)C1CCOCC1
0.1	-5	-5	CCS(=O)(=O)N1CCCCN2[C@H](CO)[C@H](c3ccc(-c4ccccc4C)cc3)[C@H]2C1
12	0	12	CCCC#Cc1ccc2c(c1)[C@H]1[C@H](CCN1S(=O)(=O)c1ccc(F)cc1)[C@@H](CO)N2
9.8	-6	4	CC(=O)N1CC(=O)N2[C@@H](CO)[C@H](c3ccc(C#Cc4cccnc4)cc3)[C@@H]2C1
1.6	-2	0	O=C(c1ccccn1)N1CC[C@@H]2[C@H]1c1cc(C#Cc3cccnc3)ccc1N[C@@H]2CO
-8.8	8	-1	C[C@@H]1CN([C@@H](C)CO)C(=O)c2c(c3ccccc3n2C)-c2ccccc2CO[C@@H]1CN(C)C(=O)NC1CCCCC1
-3.8	4	0	CC(=O)N1C[C@@H]2[C@H](c3ccccc31)[C@@H](CO)N2C(=O)c1ccc(F)cc1
2.5	1	4	CC(=O)N1[C@H](CN(C(=O)c2cccc(F)c2)C(C)C)[C@@H](c2ccccc2)[C@@H]1CO
3.3	0	3	COCCNC(=O)C[C@H]1CC[C@H]2[C@@H](COc3ccc(NC(=O)c4cc(C)on4)cc3C(=O)N2C)O1
1.0	-3	-2	CO[C@@H]1CN(C)C(=O)c2cc(NS(=O)(=O)c3cn(C)cn3)ccc2OC[C@@H](C)N(C)C[C@H]1C
·	·	?	COc1ccc(C#Cc2cnc3c(c2)C(=O)N([C@H](C)CO)C[C@H](C)[C@H](CN(C)C(=O)Nc2cccc4ccccc24)O3)cc1OC
-0.8	6	5	Cc1ccc(S(=O)(=O)Nc2ccc3c(c2)C(=O)N([C@@H](C)CO)C[C@H](C)[C@@H](CN(C)S(=O)(=O)c2cccs2)OCCCC[C@H](C)O3)cc1
3.3	-3	0	C[C@@H]1CN([C@H](C)CO)C(=O)c2cc(C#CC3CCCC3)cnc2O[C@@H]1CN(C)C(=O)Cc1ccccn1
3.0	0	3	C[C@@H]1CCCCO[C@H](CN(C)C(=O)CCC(F)(F)F)[C@H](C)CN([C@@H](C)CO)C(=O)c2cc(NC(=O)Cc3ccccc3)ccc2O1
